NPYLR7 agonist: agonists of mosquito NPYLR7 receptor, primary screen, cell-based, Aedes aegypti, calcium fluorescence, mosquito biting behavior; activation, % at 10 µM; actives 0.15% (n = 270,000); HEK293T NPYLR7/Galpha15, GCaMP6s calcium fluorescence; AID 1259423, 2018; Aedes aegypti neuropeptide Y-like receptor 7 (NPYLR7); in the data active = activation above about 40%;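 also: 0% = vehicle and 100% = reference agonist at the receptor; some compounds past the cut are filed as inactive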
NPYLR7 agonist max-min: second read-out of NPYLR7 agonist, no call of its own (marks repeat the call); activation, %; measured here: Max-Min RFU normalised activation; some inactives read as strong as hits;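 span of the calcium signal over five minutes; 0% = vehicle and 100% = native peptide agonist; compound fluorescence can raise it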
Numbers without * were called inactive; & = joins results of further samples. Only part of the results is shown; count on the stated rates, not on these rows.

Results follow in this order: NPYLR7 agonist	NPYLR7 agonist max-min
CN(C(=O)c1cccc(-n2ccc(C(F)(F)F)n2)c1)c1ccccn1
 : -1	-6
O=C(Cc1ccccc1Br)NCC1CSCCS1 (centres undefined)
 : 5	2
COc1cccc(OCc2cc(C(=O)N(C)Cc3n[nH]c4c3CCCC4)n[nH]2)c1
 : 15	7
CSc1nc(SC)c2c3c(sc2n1)CN(C)CC3
 : 9	7
CC(Oc1ccccc1)C(=O)NC(c1cccs1)C(C)(C)C (centres undefined)
 : 5	3
Cc1cccc(-c2nc3c(NCCO)nccc3[nH]2)c1
 : -5	-10
Cc1ccsc1CN(Cc1ccc(F)cc1)C(=O)CN(CCN1CCOCC1)C(=O)c1cccc(Br)c1
 : -9	-3
CC(C)n1cnnc1CNC(=O)CCc1cnn(-c2ccccc2)c1
 : 0	-1
CCOC(=O)CC1(S(=O)(=O)c2ccc(F)cc2)CCN(Cc2ccccc2)CC1
 : -25	-21
CC(c1ccccc1Cl)N(C)Cc1cc(=O)c(O)co1 (centres undefined)
 : 7	1
Clc1ccc(-n2cc(-c3ccccc3)c3c(NCC4CCCO4)ncnc32)cc1 (centres undefined)
 : 0	-1
CCC(C(=O)Nc1cccc(C2SCC(=O)N2c2cccc(F)c2C)c1)c1ccccc1 (centres undefined)
 : 16	12
O=C(CSc1ncnc2sccc12)N1CCN(C(=O)c2cccs2)CC1
 : 4	9
COC(=O)C(CC(C(=O)OC)N1C(=O)c2ccccc2C1=O)SC(C)=O (centres undefined)
 : 7	5
O=C(CN1CCN(c2ccc3c(c2)OCCO3)C1=O)NCc1ccccn1
 : 2	1

As entered above:
NPYLR7 agonist max-min result of `CC(Oc1ccccc1)C(=O)NC(c1cccs1)C(C)(C)C` (centres undefined) is entered as 3
NPYLR7 agonist max-min result of `CCOC(=O)CC1(S(=O)(=O)c2ccc(F)cc2)CCN(Cc2ccccc2)CC1` is entered as -21

Following part
Results follow in this order: NPYLR7 agonist	NPYLR7 agonist max-min
Cc1occc1C(=O)N1CCC(C2CCN(c3ncccn3)CC2)C1 (centres undefined)
 : 2	-3
CS(=O)(=O)c1ccc(C2CC(=O)Nc3c2cnn3CC2CCCCC2)cc1 (centres undefined)
 : -1	-4
COc1ccc(N2CCN(C(=O)c3cccs3)C(C)C2=O)c(OC)c1 (centres undefined)
 : -2	0
CCOC(=O)CNC(=O)N[C@H]1[C@H](O)[C@@H]2O[C@H]1c1ccccc12
 : 5	12
Cc1cccc(OCCSc2nc3ccccc3n2CC(=O)N2CCOCC2)c1
 : -1	5
CC(C)N1CCC(CNS(=O)(=O)c2cccs2)CC1
 : -10	-12
CN(C)CCNC(=O)c1ccc(CSc2nc(N3CCN(c4ccccc4Cl)CC3)cc(C(F)(F)F)n2)o1
 : 11	10
COc1cc2c(cc1CN1CCCN(c3ccnc(C)c3)CC1)OCCO2
 : -5	-13
Cc1ccc(Nc2cc(C)nc(N3CCN(C(=O)C(C)(C)C)CC3)n2)cc1
 : 49	35
O=S(=O)(NCc1ccccc1)Nc1ccc2cn[nH]c2c1
 : 5	2
CCCCNC(=O)c1cc(-c2ccco2)nc2c1c(C)nn2C1CCS(=O)(=O)C1 (centres undefined)
 : 0	2
CCOc1ccc(-c2nc(N)ncc2Oc2ccccc2OCC)c(O)c1
 : 4	0
Cc1cc(C)c(C(N)=O)c(N2CCN(c3ccccc3)CC2)n1
 : -1	-2
O=C(O)C(Oc1ccc(F)cc1F)c1ccccc1 (centres undefined)
 : 5	3
Cc1cccc(OCc2ccc(-c3nc(C#N)c(N(C)C)o3)o2)c1
 : -1	9

Next section:
Results follow in this order: NPYLR7 agonist	NPYLR7 agonist max-min
Cc1nnc(SC(C)C(=O)NCc2ccc(Cl)cc2)o1 (centres undefined)
 : 1	0
CCOC(=O)c1cc(-c2cccc(NC(=O)c3ccc(Cl)nc3)c2)n(-c2ccc(OC)cc2)n1
 : 25	14
O=C1NC(=O)C(c2ccccc2[N+](=O)[O-])=C1Nc1ccc(O)c(Cl)c1
 : -7	-2
CCOC(=O)c1c(NC(=O)C(Cl)Cl)c(-c2cccc(F)c2)cn1Cc1ccccc1
 : 4	8
O=C1CC(c2ccccc2)CC(O)=C1C=NCCCO (centres undefined)
 : 3	9
CCCCN(C=O)c1c(CC)nc2c(OCc3ccc(S(C)(=O)=O)cc3)cccn12
 : 6	9
Cc1ccc(NC(=O)NCCNc2cc(-n3cccn3)ncn2)cc1Cl
 : -8	-13
O=C(NC1CC1)C1CCN(C2CCN(Cc3cccn3-c3nccs3)CC2)CC1
 : 0&7	-6&6
COCCN(CC(=O)N(CCc1ccc(OC)c(OC)c1)Cc1sccc1C)C(=O)Nc1c(C)cccc1C
 : 7	13
COCCNC(=O)C1(C)CCCN(Cc2cn(C)c3ccccc23)C1 (centres undefined)
 : 2	5
Cc1cnc(C(=O)NCc2ccc3c(c2)OCO3)cn1
 : 1	2
c1csc(-c2nnc(CSc3cn[nH]n3)o2)c1
 : -1	3
COc1nn(C)cc1C(=O)NCc1cc(-c2ccc(F)cc2F)on1
 : -2	-3
Cc1ccc2oc(-c3cc(NC(=O)c4ccc(I)cc4)ccc3Cl)nc2c1
 : 2	-5
O=C(NCC1CCCO1)c1nc(-c2cccs2)no1 (centres undefined)
 : -1	1

Compound profiles (already shown). Order of screens: NPYLR7 agonist, NPYLR7 agonist max-min
c1csc(-c2nnc(CSc3cn[nH]n3)o2)c1 across the screens: -1, 3
O=C1NC(=O)C(c2ccccc2[N+](=O)[O-])=C1Nc1ccc(O)c(Cl)c1 across the screens: -7, -2
COc1nn(C)cc1C(=O)NCc1cc(-c2ccc(F)cc2F)on1 across the screens: -2, -3
O=C(NC1CC1)C1CCN(C2CCN(Cc3cccn3-c3nccs3)CC2)CC1 across the screens: 0&7, -6&6
COCCNC(=O)C1(C)CCCN(Cc2cn(C)c3ccccc23)C1 (centres undefined) across the screens: 2, 5

4 structures out of the list, ordered by molecular weight, smallest number first:
Results follow in this order: NPYLR7 agonist	NPYLR7 agonist max-min
O=C1CC(c2ccccc2)CC(O)=C1C=NCCCO (centres undefined)
 : 3	9
COc1nn(C)cc1C(=O)NCc1cc(-c2ccc(F)cc2F)on1
 : -2	-3
Cc1ccc(NC(=O)NCCNc2cc(-n3cccn3)ncn2)cc1Cl
 : -8	-13
COCCN(CC(=O)N(CCc1ccc(OC)c(OC)c1)Cc1sccc1C)C(=O)Nc1c(C)cccc1C
 : 7	13

Next results:
Results follow in this order: NPYLR7 agonist	NPYLR7 agonist max-min
CCC(C)(C)NC(=O)c1cccnc1Nc1cccc(C)c1C
 : 16	7
COc1ccc(-c2c(C)nn(-c3ccccc3)c2C)c(C(=O)NCc2ccc3ccccc3c2-c2ccccc2)c1
 : 4	-1
FC(F)(F)c1nnc2sc(CCc3ccccc3)nn12
 : 5	2
CC(C)N1CCC(O)N1C=O (centres undefined)
 : -2	-6
CNS(=O)(=O)c1cc(C(=O)N(C)C(C)Cc2ccc(Cl)cc2)ccc1F (centres undefined)
 : 8	7
Cc1cc(C)c(S(=O)(=O)N(CC(=O)N2CCc3sccc3C2c2ccccc2C)C2CCCCC2)c(C)c1 (centres undefined)
 : 14	18
CCn1c(C2CCN(Cc3ccc4c(c3)CC(C)O4)CC2)n[nH]c1=O (centres undefined)
 : 6	2
O=c1c(S(=O)(=O)c2ccccc2)c[nH]c2ccc(Cl)cc12
 : 4	5
COc1ccc2oc(=Nc3sc4c(c3C(N)=O)CCCC4)c(C(N)=O)cc2c1
 : -6	-12
Fc1cccc(CSc2nnc(-c3ccccc3Cl)n2-c2ccccc2Cl)c1F
 : 18	18
COc1cc(CNC(=O)Nc2ccc(C)cc2C)ccc1OCCO
 : 3	5
O=c1[nH]c2ccc(Br)cc2c(-c2ccccc2)c1C1=NOC(c2ccccc2)C1 (centres undefined)
 : 18	12
CCc1nc2n(n1)C(=O)C(C(c1ccc(OC)c(OC)c1)N1CCN(c3ccccc3F)CC1)S2 (centres undefined)
 : -7	-12
Cc1nnsc1CN(C)Cc1ncc[nH]1
 : 11	5
COC(=O)[C@@H]1C[C@@H](O)CN1Cc1cc(=O)oc2cc(C)c(C)cc12
 : 2	0

More records
Results follow in this order: NPYLR7 agonist	NPYLR7 agonist max-min
CC(C)CCN(Cc1ccc(OS(C)(=O)=O)cc1)S(=O)(=O)c1cc(Cl)ccc1Cl
 : -12	-4
CCc1ccccc1NC(=O)c1cc2cc3c4c(c2oc1=N)CCCN4CCC3
 : 29	26
COc1ccccc1OCCN1CCC(C(=O)N(C)C(c2ccc(F)cc2)c2ncccc2C)CC1 (centres undefined)
 : -8	-12
CC(C)(C)OC(=O)N(Cc1ccc(F)cc1)C1CCC(C(=O)N2CCOC(COc3cccc(C(F)(F)F)c3)C2)CC1 (centres undefined)
 : 5	2
CC(C)c1nc(NC(=O)c2cn(Cc3cccs3)nn2)n[nH]1
 : 1	2
CN(NC(=O)CNC(=O)C1CC1(c1ccccc1)c1ccccc1)c1ccccc1 (centres undefined)
 : -11	-19
CCOC(=O)C(c1ccc(OC)c(OC)c1)C1C=CC(NC(=O)c2ccc(OC)c(C(F)(F)F)c2)C1 (centres undefined)
 : 6	2
Cc1ccc(-c2nc3ccccc3o2)cc1NC(=O)c1ccc(C)c([N+](=O)[O-])c1
 : -5	-11
COC[C@H]1C[C@H]2C[C@@H](OC)[C@H](N3CCN(C(=O)c4ccco4)CC3)[C@]2(O)CO1
 : 11	24
CC1CCN(c2nc(N)c([N+](=O)[O-])c(NCC3CCCO3)n2)CC1 (centres undefined)
 : 1	0
Oc1ccc(C2CC(c3ccccc3O)=NN2)cc1 (centres undefined)
 : 12	10
Cc1csc(NC(=O)CCn2cc(Br)ccc2=O)n1
 : -6	-6
CN(C)C1CCCN(C(=O)NCCNC(=O)C2CCCCC2)C1 (centres undefined)
 : 3	9
COC(=O)c1ccc2nc(NC(=O)CSc3nc(C)cc(C)n3)sc2c1
 : -4	-9
COCC(=O)Nc1cc(C(=O)N2CCC(C)CC2)cn(C)c1=O
 : -4	-7

Remaining list, next part
Results follow in this order: NPYLR7 agonist	NPYLR7 agonist max-min
C=C(C)COc1ccccc1C(=O)N1CCc2[nH]cnc2C1c1ccccn1 (centres undefined)
 : -2	-4
COCCn1c(O)c(C=Nc2nc(CC(=O)OC)cs2)c(=O)[nH]c1=S
 : -1	-3
NC1=NC(=O)C(Cc2ccc(Br)cc2)S1 (centres undefined)
 : -4	-4
CCc1ccc(NC(=O)c2cc(OC)c(S(N)(=O)=O)s2)cc1
 : -6	-10
CCN1C=C(c2csc(C)n2)C(c2ccc(Cl)cc2)NC1=O (centres undefined)
 : 2	45
O=C(NC(Cc1ccccc1)C(=O)Nc1nnc(-c2ccc3c(c2)OCO3)s1)NC12CC3CC(CC(C3)C1)C2 (centres undefined)
 : 16	26
Cc1ccc(S(=O)(=O)N(CCN2CCCC2)CC(=O)N(Cc2ccc(F)cc2)Cc2cccs2)cc1
 : 9	14
CC(C)(C)CC(=O)Nc1ccc(Oc2ccc(CC#N)cc2)nc1
 : -1	-4
Cc1cccc(-n2c(-c3ccc(F)cc3)n[nH]c2=S)c1
 : -6	-4
CCc1cc(NC(=O)Cc2ccn(-c3ccc(F)cc3)n2)n[nH]1
 : 2	2
CCCC1(C2CCN(c3nc4ccccc4cc3C)CC2)NC(=O)NC1=O (centres undefined)
 : 13	4
COc1ccc(-c2c3c(=O)n(-c4ccccn4)ccc3nc3nc(C)nn23)cc1
 : -12	-20
CCc1nc2ccc(C(=O)NCc3ccccc3OC)cn2c1N(C)Cc1ccc(OC)cc1
 : -19	-25
NC(=O)CSc1nc2c(c(=O)n1CCc1ccccc1)SCC2
 : 4	-4
Nc1ccc2nc(/C=C/c3ccc(Cl)cc3)[nH]c2c1
 : 2	-1

More compounds follow:
Results follow in this order: NPYLR7 agonist	NPYLR7 agonist max-min
CCCc1noc(CN(C)CCCN2CCOCC2)n1
 : 4	3
COCCOCC(=O)N1CCN2CCN(C)CC2C1 (centres undefined)
 : 10	7
COC(=O)C(=O)N1CCN(c2nc3nccc(-c4cccs4)n3n2)CC1
 : -1	-5
COC(=O)CCCCC(=O)Nc1ccc(-c2cccc(-c3ccc4c(c3)OCCO4)n2)cc1
 : -2	5
CCN(CC)S(=O)(=O)c1ccc2nc(-c3ccc(C#N)cc3)[nH]c2c1
 : 8	4
COCCN1C(=O)C(Sc2ccccc2)C1c1cccs1 (centres undefined)
 : 1	2
O=C(c1c(F)cccc1C(F)(F)F)N1CCC(Cc2ccc(-c3ccccc3)cc2)CC1
 : 3	-2
C=CCNC(=O)C1C2C=CC(C2)C1C(=O)OC(C)C (centres undefined)
 : 13	4
CCOC(=O)c1ccc(Nc2nc(-c3cc4c(ccc5ccccc54)oc3=O)cs2)cc1
 : -1	7
CCOCCn1c(=NC(=O)c2ccc3ncsc3c2)sc2cc(NC(C)=O)ccc21
 : 3	1
CCS(=O)(=O)c1ccc2oc(CN3CCN(S(N)(=O)=O)CC3)nc2c1
 : 3	2
Cn1cc(C(CC(=O)NC2CCN(Cc3ccccc3)CC2)c2cccc(C(F)(F)F)c2)c2ccccc21 (centres undefined)
 : 4	18
CCOc1ccc(-c2cnc(-c3cccc(OCC(N)=O)c3)[nH]2)cc1
 : 18	1

A second format for part of the listing above:
smiles: COCCN1C(=O)C(Sc2ccccc2)C1c1cccs1 (centres undefined)
  NPYLR7 agonist: 1; NPYLR7 agonist max-min: 2

smiles: O=C(c1c(F)cccc1C(F)(F)F)N1CCC(Cc2ccc(-c3ccccc3)cc2)CC1
  NPYLR7 agonist: 3; NPYLR7 agonist max-min: -2

smiles: C=CCNC(=O)C1C2C=CC(C2)C1C(=O)OC(C)C (centres undefined)
  NPYLR7 agonist: 13; NPYLR7 agonist max-min: 4

smiles: CCOC(=O)c1ccc(Nc2nc(-c3cc4c(ccc5ccccc54)oc3=O)cs2)cc1
  NPYLR7 agonist: -1; NPYLR7 agonist max-min: 7
